Compound activity as filed in PubChem.
HNF4A DNA FP – change in binding of human HNF4 alpha to DNA; 0.3% of 360,000 active; activity change, % at 10 µM; HNF4a-FITC DNA binding, fluorescence polarization, 1 h; P41235; in the data active = activity change above about 30%, passing the limit was not always enough;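 note: controls were the assay level and a saturating level of protein; the project sought stronger binding though the title names inhibitors; some compounds called inactive have numbers as strong as hits; positive values seem to mean higher polarization but the record does not say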
Target sequence (P41235 whole entry, looked up): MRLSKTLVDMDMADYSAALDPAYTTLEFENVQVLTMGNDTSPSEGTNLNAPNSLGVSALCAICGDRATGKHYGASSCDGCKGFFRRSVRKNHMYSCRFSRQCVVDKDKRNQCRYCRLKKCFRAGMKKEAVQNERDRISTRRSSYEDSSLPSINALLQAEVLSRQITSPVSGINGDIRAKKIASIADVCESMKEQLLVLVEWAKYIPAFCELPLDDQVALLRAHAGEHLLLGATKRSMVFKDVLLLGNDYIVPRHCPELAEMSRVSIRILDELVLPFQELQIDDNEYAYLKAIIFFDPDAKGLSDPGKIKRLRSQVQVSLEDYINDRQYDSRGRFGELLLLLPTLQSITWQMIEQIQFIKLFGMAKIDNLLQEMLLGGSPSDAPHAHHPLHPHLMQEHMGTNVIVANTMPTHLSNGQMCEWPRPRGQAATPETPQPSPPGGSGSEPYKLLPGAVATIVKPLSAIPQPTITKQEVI
rRNA inh HTS – inhibitors of bacterial rRNA selective over humanized ribosomes; E. coli WT GFP vs humanized-ribosome RFP mutants, fluorescence, 24 h; stronger effect = lower value; DMSO median 0, no signal -100; 1.6% of 350,000 active; GFP signal change (wild-type ribosome), % (test concentration not listed); AID 720706;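 active = significant combined selectivity score with lowered wild-type GFP, culture density cut under 30%, mutant RFP and density less affected; inactive = any of these conditions unmet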; note: one replicate is shown; some compounds called inactive have numbers as strong as hits
FGF22 binding – FGF22 (human) thermal shift binding. recombinant FGF22 thermal shift, SYPRO orange fluorescence; percent of sucrose octasulfate shift, DMSO zero. calls only at 9.99 µM. 1.5% of 340,000 active;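 active = melting point raised past a set limit in the mean and every replicate; three in four hits are not shown here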
ALR H2O2 inh – inhibitors of human sulfhydryl oxidase ALR. P55789. purified ALR, DTT oxidation, H2O2 HRP-luminol luminescence. inhibition, % (concentration not given with the values). 3.8% of 290,000 active;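 active = mean and each replicate at 75% or more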;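 note: stock transfer was 7.5 nL into about 7.5 µL; 0% = neutral wells and 100% = wells with inactivated enzyme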
Ecoli growth – blocks Escherichia coli growth; OD600 absorbance (test concentration not listed); 0.21% of 330,000 active; OD600, 23 h; stronger effect = lower value;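 active = OD600 absorbance below the run mean of sample wells minus 3.6 SD, in any replicate, cut at about 0.56 in these data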;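 note: stock transfer was 300 nL into about 60 µL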
Vif A3G – inhibitors of Vif binding to APOBEC3G peptide, primary screen, biochemical, TR-FRET, GST-Vif 1-94, biotin-A3G peptide, dose response retest (AID 1117319). TR-FRET GST-Vif / biotin-A3G peptide binding; higher % means a stronger effect; test concentration not given here; strong numbers were not always called active. inhibition, %; hits with a dose series show IC50 in µM. 0.57% of 260,000 active;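 active = above the screen mean plus three standard deviations and confirmed in dose response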;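 note: Vif residues 1-94 fused to GST binding biotinylated APOBEC3G peptide 110-148; 0% = full assay without inhibitor and 100% = GST in place of GST-Vif; retest series ran down from 100 µM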
MLL AF4-AF9 inh – blocks AF4 peptide binding to human AF9; AlphaScreen, biotin-AF4 peptide binding to FLAG-AF9; inhibition, % at 10 µM; 0.47% of 350,000 active; AID 651704;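 active = every replicate reaching a set inhibition limit, whatever the replicate mean, cut at about 25% in these data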;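 note: 0% = plate neutral control median and 100% = total signal loss; the record names both 10 and 1 µM as test concentration; the first replicate is given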
Target sequence (P42568 whole entry, looked up): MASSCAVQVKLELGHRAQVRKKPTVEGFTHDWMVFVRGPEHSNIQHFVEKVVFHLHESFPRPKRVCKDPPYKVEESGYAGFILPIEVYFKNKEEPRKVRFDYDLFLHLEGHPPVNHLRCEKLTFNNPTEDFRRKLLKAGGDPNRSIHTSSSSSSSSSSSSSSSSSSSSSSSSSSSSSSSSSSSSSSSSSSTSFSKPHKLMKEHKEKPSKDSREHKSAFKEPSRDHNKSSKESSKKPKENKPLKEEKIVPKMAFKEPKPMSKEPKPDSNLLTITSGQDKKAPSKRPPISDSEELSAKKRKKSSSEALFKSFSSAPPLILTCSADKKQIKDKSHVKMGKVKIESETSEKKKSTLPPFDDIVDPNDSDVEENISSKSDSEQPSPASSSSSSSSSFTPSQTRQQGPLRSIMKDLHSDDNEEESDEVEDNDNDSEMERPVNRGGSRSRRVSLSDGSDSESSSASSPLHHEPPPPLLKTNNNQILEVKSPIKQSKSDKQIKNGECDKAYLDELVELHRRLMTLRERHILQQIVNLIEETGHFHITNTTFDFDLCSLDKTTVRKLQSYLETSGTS
rRNA inh HTS OD600 – recorded beside rRNA inh HTS, whose call it bears; OD600 change, %; measured here: OD600 growth;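 optical density of the mix in the first replicate; 0 = DMSO median and -100 = no signal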
rRNA inh HTS RFP – further read-out of rRNA inh HTS, marked with its call; RFP signal change, %; measured here: RFP humanized mutant strains;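 first replicate; 0 = DMSO median and -100 = no signal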
The depositor's hits bear a star; i = inactive; . = no result given; & = joins results of further samples.

SMILES	HNF4A DNA FP	rRNA inh HTS	rRNA inh HTS OD600	rRNA inh HTS RFP	FGF22 binding	ALR H2O2 inh	Ecoli growth	Vif A3G	MLL AF4-AF9 inh
COc1ccc(S(=O)(=O)Cc2ccc(C(=O)N3CCCC3)o2)cc1	-1.0	3	0	-12	i	94*	0.75	8%	-6.7
CO[C@H]1CN(C)C(=O)c2ccc(NC(=O)CC(F)(F)F)cc2OC[C@H](C)N(C(=O)C2CCCCC2)C[C@@H]1C	.	1	-1	2.0	i	.	.	.	-1.6
COc1ccc(Br)cc1CNC(=O)Cc1cccs1	1.1	3	-1	-1.2	i	-4	0.67	8%	-1.1
Cc1noc(C)c1NC(=O)N(C)C[C@@H]1Oc2ncc(C#CC3CCCC3)cc2C(=O)N([C@@H](C)CO)C[C@H]1C	.	2	2	-0.9	i	.	.	.	-0.1
CC(=O)N1[C@@H](CO)[C@@H](c2ccccc2)C12CN(Cc1cc(F)ccc1F)C2	.	0	8	-0.7	i	.	.	.	1.4
CCC(=O)Nc1ccc2c(c1)C(=O)N(C)[C@@H]1CC[C@H](CC(=O)N3CCc4ccccc4C3)O[C@H]1CO2	.	2	3	0.2	i	.	.	.	-1.0
COc1ccccc1CCNC(=O)C(=O)NCC1OCCN1S(=O)(=O)c1ccc(C)cc1 (stereo not drawn)	-1.7	-1	-17	-0.6	i	.	0.8	.	4.2
CCOC(=O)COc1ccc2c(=O)c(-c3ccc(OC)c(OC)c3)c(C(=O)OCC)oc2c1	1.4	-4	6	-8.7	i	4	0.67	-7%	2.9
O=C1CC[C@@H](O)CCN1CC[C@H](Sc1ccccc1)c1ccccc1	0.1	-31*	-19*	-10*	i	31	.	.	1.1
CCNC(=O)CN1C(=O)NC(Cc2ccccc2)(Cc2ccccc2)C1=O	-0.9	15	2	2.4	i	.	0.69	11%	-1.1
CC(C)(C)C(=O)NC(=S)NNC(=O)C(c1ccccc1)c1ccccc1	0.9	.	.	.	.	.	0.69	20%	.
Cc1ccc(C(C(=O)NC2CCCC2)N(Cc2ccc3c(c2)OCO3)C(=O)Cc2cccs2)cc1 (stereo not drawn)	0.8	.	.	.	.	0	0.71	-4%	.
CC(=O)c1c(C(C)=O)c(C)n(-c2cccc([N+](=O)[O-])c2)c1C	-1.4	.	.	.	.	.	0.61	15%	.
C[C@H](CO)N1C[C@H](C)[C@H](CN(C)C(=O)Cc2ccccc2)OCCCC[C@H](C)Oc2ccc(NC(=O)Nc3ccc(F)cc3)cc2C1=O	.	1	-7	2.5	i	.	.	.	-2.4
COc1cc(C#CC#CCN2CCCCC2)ccc1O	0.2	.	.	.	.	99*	0.65	5%	.
CCc1ccccc1-n1c(SCC(=O)Nc2ccc3c(c2)OCCO3)nc2[nH]ncc2c1=O	-1.4	.	.	.	.	2	0.71	21%&1%	.
O=C(NC1CCCCC1)NC1CCN(S(=O)(=O)Cc2ccccc2)CC1	-0.2	.	.	.	.	1	0.71	-2%	.
Clc1cccc(Cl)c1COc1ccccn1	-3.0	.	.	.	.	-8	0.69	10%	.
COCCCN(CC(=O)Nc1ccc(N2CCOCC2)cc1)S(=O)(=O)c1ccc(Cl)cc1	2.2	5	6	-9.6	i	71	0.66	-13%	0.5
CCCC(=O)N1CCCC1(C)C(=O)NCc1c(F)ccc(C)c1F (stereo not drawn)	-1.7	6	-3	-0.9	i	.	.	.	-22
O=C(Nc1cccc(S(=O)(=O)C(F)(F)F)c1)[C@@H]1O[C@H](CO)[C@@H](O)[C@H]1O	0.4	9	13	-2.6	i	.	.	.	0.7
C[C@H](NC(=O)C[C@H]1C=C[C@H](NC(=O)CN2CCOCC2)[C@H](CO)O1)c1ccccc1	.	5	6	0.2	i	.	.	.	0.7
CCCCn1nnnc1C(c1ccccc1)N1CCN(c2c(Cl)cncc2Cl)CC1 (stereo not drawn)	-1.1	-13	-19	-3.3	i	.	.	.	0.1
O=C(C[C@H]1CC[C@H]2[C@@H](COC[C@@H](O)CN2C(=O)Nc2ccc(Cl)c(Cl)c2)O1)NCc1ccc(Cl)cc1	.	-61	-82	-23	i	.	.	.	0.1
CC(C)CC#Cc1ccc2c(c1)O[C@@H](CN(C)C(=O)Cc1cccnc1)[C@H](C)CN([C@@H](C)CO)S2(=O)=O	.	-4	-12	8.2	i	.	.	.	4.2
O=C(CN1CCN(C(=O)CN2C(=O)NC3(CCCC3)C2=O)CC1)Nc1cccc(F)c1	-1.7	5	5	1.8	i	.	0.69	.	2.2
CCCNC(=O)C[C@@H]1CC[C@@H]2[C@@H](COc3ccc(NC(=O)c4cccc(OC)c4)cc3C(=O)N2C)O1	.	-1	-7	1.2	i	.	.	.	-2.5
CCOc1nc(C)ccc1-c1noc(CC)n1	1.0	.	.	.	.	-3	0.68	11%	.
Oc1ccc(Nc2ccc3ccccc3c2)cc1	6.0	-23	-19	36	i	.	0.65	.	0.6
O=C(c1ccc2c(c1)OCO2)C1CCCN(Cc2ccc3cccc(F)c3n2)C1 (stereo not drawn)	1.3	.	.	.	.	.	0.7	13%	.
CC(NC(=O)CC1Sc2ccccc2NC1=O)c1ccccc1 (stereo not drawn)	1.9	31	25	0.8	i	8	0.71	-9%	-1.7
COc1ccc(N(CC(=O)NCc2ccc(F)cc2)S(=O)(=O)c2c(C)noc2C)cc1	-0.6	-2	-4	-0.5	i	1	0.64	.	0.2
Cc1oc2nc(SCCCC(=O)NCCCO)nc(N)c2c1C	0.4	.	.	.	.	4	.	1%	.
CCOC(=O)C1=NN(C(C)=O)C2(CC(=O)N(c3ccc(C)c(C)c3)C2=O)C1 (stereo not drawn)	-0.2	.	.	.	.	-2	.	-1%	.
C[C@@H]1CN([C@H](C)CO)C(=O)Cc2cc(NC(=O)c3ccncc3)ccc2O[C@H]1CN(C)C(=O)Nc1ccc(F)cc1	.	4	11	-3.1	i	.	.	.	-0.7
CN1C(=O)[C@@H]2C[C@@]3([C@@]45C[C@H]6C(=O)N(C)[C@@H](Cc7ccccc7)C(=O)N6[C@@H]4Nc4ccccc45)c4ccccc4N[C@H]3N2C(=O)[C@@H]1Cc1ccccc1	-0.7	15	7	0.9	i	3	.	.	-7.2
O=C(C[C@H]1CC[C@H]2[C@@H](COC[C@@H](O)CN2C(=O)c2cnccn2)O1)NCc1ccc(F)cc1	.	7	14	3.4	i	.	.	.	-0.1
CC(C)(C)OC(=O)C[C@@H]1C/C=C\C[C@H](CC(=O)NCCO)C(=O)N2CCC[C@H]2COC1=O	-2.5	7	13	-7.1	i	5	.	.	.
COc1ccc(O)c(-c2cc(C(F)(F)C(F)F)nc(-c3ccccc3)n2)c1	2.0	.	.	.	.	-29	0.76	2%	.
CCOC(=O)C1(C)CCCCN1C(=O)c1cccnc1 (stereo not drawn)	0.5	16	11	-1.5	i	.	.	.	-1.5

Full records from above. Values in the order: HNF4A DNA FP	rRNA inh HTS	rRNA inh HTS OD600	rRNA inh HTS RFP	FGF22 binding	ALR H2O2 inh	Ecoli growth	Vif A3G	MLL AF4-AF9 inh
`O=C(Nc1cccc(S(=O)(=O)C(F)(F)F)c1)[C@@H]1O[C@H](CO)[C@@H](O)[C@H]1O` reads 0.4	9	13	-2.6	i	.	.	.	0.7
`C[C@H](NC(=O)C[C@H]1C=C[C@H](NC(=O)CN2CCOCC2)[C@H](CO)O1)c1ccccc1` reads .	5	6	0.2	i	.	.	.	0.7
`Oc1ccc(Nc2ccc3ccccc3c2)cc1` reads 6.0	-23	-19	36	i	.	0.65	.	0.6
`CCCNC(=O)C[C@@H]1CC[C@@H]2[C@@H](COc3ccc(NC(=O)c4cccc(OC)c4)cc3C(=O)N2C)O1` reads .	-1	-7	1.2	i	.	.	.	-2.5

(cont.)
SMILES	HNF4A DNA FP	rRNA inh HTS	rRNA inh HTS OD600	rRNA inh HTS RFP	FGF22 binding	ALR H2O2 inh	Ecoli growth	Vif A3G	MLL AF4-AF9 inh
Cc1onc(-c2ccccc2Cl)c1C(=O)N1CC(C)CC(C)C1 (stereo not drawn)	6.9	-9	-8	0.8	i	.	0.7	-2%	0.9
COc1ccc(C(CNC(=S)NCc2ccccc2)N2CCCC2)cc1 (stereo not drawn)	0.2	-3	-15	30	i	0	0.68	.	6.8
CCCn1c(SCC(=O)N2c3ccc(F)cc3CCC2C)nnc1-c1ccccn1 (stereo not drawn)	-3.3	.	.	.	.	.	0.73	-7%	.
O=C(Nc1cc(C(F)(F)F)ccc1Cl)c1cccnc1	-0.5	16	3	1.9	i	0	.	16%	-13
Cc1ccc(C2CCN(C(=O)Nc3ccccc3)C2)cc1 (stereo not drawn)	-4.6	.	.	.	.	-2	0.65	0%	.
CN(C)Cc1c(O)ccc2occ(C(=O)c3ccc(F)cc3)c12	0.5	13	14	4.6	i	5	.	32%	-3.4
C[C@@H]1CCCCO[C@@H](CN(C)Cc2ccncc2)[C@H](C)CN([C@H](C)CO)C(=O)c2cc(NC(=O)CCC(F)(F)F)ccc2O1	.	2	0	-1.6	i	.	.	.	-3.6
CC1CCCN(C(=S)NC2CCCC2)C1 (stereo not drawn)	-4.5	4	3	-2.1	i	2	0.67	-1%	-0.5
C[C@H]1CN([C@@H](C)CO)S(=O)(=O)c2ccc(-c3ccc(F)cc3)cc2O[C@@H]1CN(C)C(=O)c1ccccc1F	.	-10	-31	0.7	i	.	.	.	3.7
C[C@H](NC(=O)C[C@@H]1CC[C@H](NC(=O)CN2CCOCC2)[C@H](CO)O1)c1ccccc1	.	0	-5	-1.8	i	.	.	.	0.2
CC(C)CC#Cc1ccc2c(c1)O[C@@H](CN(C)C(=O)c1cccnc1)[C@H](C)CN([C@H](C)CO)S2(=O)=O	.	1	-21	2.5	i	.	.	.	1.2
FC(F)(F)c1cccc(-c2noc(CN3CCOCC3)n2)c1	1.8	.	.	.	.	.	0.72	-6%	.
CNS(=O)(=O)c1cccc(C(=O)OCC(=O)c2ccc3[nH]c(=O)[nH]c3c2)c1	5.2	-5	2	4.0	i	-12	0.7	5%	3.2
Cc1ccc2nc(N(CCN(C)C)C(=O)C3=COCCO3)sc2c1	2.3	12	6	0.9	i	-1	0.71	.	0.5
COc1ccc2[nH]c(C(=O)O)c(CCN3C(=O)c4cccc([N+](=O)[O-])c4C3=O)c2c1	-1.3	-1	15	0.0	i	-3	.	93%	.
Cc1cccc(NC(=O)CCSc2nnc(Cc3ccccc3)o2)c1	-0.9	-6	-12	-6.2	i	-11	0.67	-6%	-6.5
C[C@@H]1CN([C@@H](C)CO)C(=O)c2cc(NC(=O)CCCCCC(=O)Nc3ccccc3N)ccc2O[C@@H]1CN(C)C(=O)Nc1ccc2c(c1)OCO2	.	2	4	1.4	i	.	.	.	1.4
CN(C)C(=O)C[C@@H]1CC[C@H]2[C@@H](COc3ccc(NC(=O)c4ccc(F)cc4)cc3C(=O)N2C)O1	.	3	2	-1.4	i	.	.	.	-2.6
O=C1C(Cl)=C(NCCCN2CCOCC2)C(=O)c2ccccc21	2.2	.	.	.	.	.	0.62	3%	4.9
CCC(=O)N[C@@H]1C=C[C@@H](CC(=O)NCc2ccccc2OC)O[C@H]1CO	.	3	2	-0.5	i	.	.	.	-3.3
CN(CC(=O)Nc1cccc(F)c1)C(=O)CN1C(=O)C2CCCCC2C1=O (stereo not drawn)	1.0	-5	0	-1.5	i	-4	0.72	0%	-18
O=C(C[C@H]1C=C[C@@H](NC(=O)c2ccccc2)[C@H](CO)O1)NCc1ccncn1	.	2	2	-0.9	i	.	.	.	-1.5
C[C@@H]1CN([C@@H](C)CO)S(=O)(=O)c2ccc(C3=CCCC3)cc2O[C@H]1CN(C)CC1CCCC1	.	-10	-25	18	i	.	.	.	6.2

An excerpt. The share of hits here may be higher or lower than overall.
